Assay outcomes deposited in PubChem BioAssay by several laboratories.
PABP FP inh: PABP poly(A) RNA binding inhibitors, primary screen, biochemical, fluorescence polarization, uHTS | inhibition, % at 35 µM | AID 2014, 2009 | 290,000 tested, 1% active | Polyadenylate-binding protein 1 (Homo sapiens), P11940;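 active means 50% or more with normal probe brightness, or confirmed in later tests; about a fifth of its hits are not listed in these tables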;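 further: calls also rest on retests at 20 µM and on dose response follow-up; controls were probe without protein and protein plus probe with vehicle; some compounds called inactive have numbers as strong as hits; many hits fall short of the cut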
Target sequence (P11940 whole entry, looked up): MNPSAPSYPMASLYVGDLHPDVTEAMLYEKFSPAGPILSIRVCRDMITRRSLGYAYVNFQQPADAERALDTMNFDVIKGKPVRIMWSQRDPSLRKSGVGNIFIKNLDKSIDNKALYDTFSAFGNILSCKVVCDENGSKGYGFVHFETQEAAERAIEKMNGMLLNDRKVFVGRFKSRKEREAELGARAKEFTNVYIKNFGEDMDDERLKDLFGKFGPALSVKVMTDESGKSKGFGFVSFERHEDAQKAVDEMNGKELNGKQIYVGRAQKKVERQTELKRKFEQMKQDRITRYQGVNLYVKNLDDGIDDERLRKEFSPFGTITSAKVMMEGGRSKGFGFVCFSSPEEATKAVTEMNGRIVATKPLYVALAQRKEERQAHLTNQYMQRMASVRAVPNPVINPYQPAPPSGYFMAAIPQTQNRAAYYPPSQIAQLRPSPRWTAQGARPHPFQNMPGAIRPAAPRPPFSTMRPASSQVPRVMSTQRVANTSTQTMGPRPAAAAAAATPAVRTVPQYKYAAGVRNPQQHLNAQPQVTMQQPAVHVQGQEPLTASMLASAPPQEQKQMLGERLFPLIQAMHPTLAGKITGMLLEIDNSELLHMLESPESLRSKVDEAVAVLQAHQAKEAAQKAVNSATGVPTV
Rce1 inhib: yeast Rce1p protease inhibitors, primary screen, biochemical, fluorescence, cell-free homogeneous; calls only; 290,000 tested, 0.27% active; CAAX prenyl protease 2 (Saccharomyces cerevisiae (strain ATCC 204508 / S288c)), Q03530; yeast membranes, quenched prenylated peptide cleavage fluorescence; AID 2563, 2010;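 active means fall in fluorescence gain of 50% or more versus controls, with final raw signal at or below 3038400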;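 further: plate controls were neutral control wells for no effect and wells lacking membranes for full effect; tested at 10 µM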
Target sequence (Q03530 whole entry, looked up): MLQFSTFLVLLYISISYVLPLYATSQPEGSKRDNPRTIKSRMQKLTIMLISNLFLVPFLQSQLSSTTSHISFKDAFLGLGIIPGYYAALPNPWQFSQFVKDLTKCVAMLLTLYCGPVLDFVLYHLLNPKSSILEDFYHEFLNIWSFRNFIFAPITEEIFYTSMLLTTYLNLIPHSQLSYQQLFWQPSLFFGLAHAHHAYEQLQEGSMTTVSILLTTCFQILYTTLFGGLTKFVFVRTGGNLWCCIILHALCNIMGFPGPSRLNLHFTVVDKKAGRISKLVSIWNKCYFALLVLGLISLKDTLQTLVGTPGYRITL
Yeast UUG start: modulators of yeast start codon fidelity, primary screen, whole organism, S. cerevisiae, single point, plate reader. 350,000 tested, 0.13% active. activity score, % at 18.7 µM. S. cerevisiae UUG-firefly luciferase reporter, luminescence/redox ratio;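 active means replicate mean at a twofold rise or more, about +100% in these data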;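 further: firefly luciferase made from a UUG start codon reports start codon fidelity; reporter light over untreated wells divided by growth signal over untreated wells; some hits fall short of that in this replicate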
Env fusion inh: inhibitors of HIV-1 Env-driven cell-cell fusion, primary screen, HeLa-JRFL effector, CEM21 target cells, luciferase. inhibition, % at 12.3 µM. 360,000 tested, 1.1% active. AID 651610, 2012;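 active means mean replicate inhibition score of at least 50 and every replicate individually at or above 50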;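 further: 0% = plate neutral controls and 100% = maraviroc near 300 nM; one replicate is shown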
eIF4H inh: human eIF4H binding inhibitors, primary screen, translation initiation inhibitor project, biochemical, uHTS, fluorescence polarization | Eukaryotic translation initiation factor 4H (Homo sapiens), Q15056 | eIF4H fluorescence polarization binding assay | inhibition, % at 35 µM | 290,000 tested, 0.94% active;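 active means 50% or more with normal probe brightness, or confirmed in later tests; about a fifth of its hits are not listed in these tables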;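 further: calls also rest on retests at 20 µM and on dose response follow-up; 0% = protein and probe with vehicle and 100% = probe without protein; strong numbers were not always called active; many hits fall short of the cut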
CSC inhib: cancer stem cell viability inhibitors, primary screen, luminescence. cancer stem cell-like cells viability. inhibition, % at 7.5 µM. 300,000 tested, 1.1% active. AID 2717, 2010;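 active means mean at 75% or more and at least half the replicates too; tested in HMLE shEcad cells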;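 further: 0% = median of negative and 100% = median of positive control wells; the first replicate is given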
MT1-MMP act inh: blockers of MT1-MMP proenzyme processing, primary screen, HT1080 RFP-PRO-GFP cells, GFP/RFP fluorescence. GFP/RFP ratio change, % at 20 µM. 360,000 tested, 0.061% active. AID 651647, 2012. GFP/RFP ratio fluorescence, overnight; percent of plate control window, DMSO zero;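 active means GFP/RFP ratio change of at least 30% with cell ATP level not reduced by more than half and red fluorescence within 50% of control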; further: strong numbers were not always called active
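Assay system: HT1080 RFP-PRO-GFP cells | Dosing: 20 µM single dose, 1% DMSO | Incubation: Cells overnight before dosing, compound overnight, 37 °C, 5% CO2 | Evaluation: GFP/RFP fluorescence ratio | Control set: DMSO-only wells and HT1080 RFP-L50D-GFP cell wells as references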
MT1-MMP act inh RFP: also measured in MT1-MMP act inh; calls as there; RFP signal change, %; measured here: RFP expression control read;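 0 = vehicle wells; hits needed this value within 50% of zero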
The depositor's hits bear a star; i = inactive; . = not tested or not shown.

Order of results: PABP FP inh	Rce1 inhib	Yeast UUG start	Env fusion inh	eIF4H inh	CSC inhib	MT1-MMP act inh	MT1-MMP act inh RFP
CC(=O)c1ccc(OCc2cc(C(=O)NCCc3ccc(Cl)cc3)no2)cc1
→ 3	i	-2	-9	8	-9	7	0
Cc1cc(C(=O)CN2C(=O)C(=O)N(Cc3ccco3)C2=O)c(C)n1CCc1ccccc1
→ .	.	-16	11	.	.	-6	-12
CC1CCN(C(=O)CSc2nnc(CNC(=O)c3ccc(S(=O)(=O)N(C)C)cc3)o2)CC1
→ -8	i	5	11	0	-2	0	-8
COc1ccc(CCNC(=O)c2cc(S(=O)(=O)N3CCOCC3)ccc2N2CCCC2)cc1OC
→ .	i	-5	-6	.	2	1	0
N#Cc1c(N)nc2c(c1N)CC(CCl)O2 (stereo unspecified)
→ 48	i	.	-32	26	-8	-5	6
Cc1csc(NC(=O)CSc2ncc(-c3ccccc3)[nH]2)n1
→ -4	i	-18	9	2	-4	6	1
CCOc1ccc(C(C)=O)cc1COc1cccnc1[N+](=O)[O-]
→ 9	i	-16	33	8	41	-2	-5
COc1ccccc1NCc1ccc([N+](=O)[O-])s1
→ -4	i	-31	.	2	7	-2	-2
c1ccc(Cn2nnc3c(NCC4CC4)ncnc32)cc1
→ .	.	-5	10	.	.	0	0
COc1cc(OC)cc(C(=O)N[C@H](C(=O)OCC(=O)Nc2ccc(C)cc2C)C(C)C)c1
→ -1	i	-8	.	-5	-2	-1	3
O=S(=O)(Nc1cccc(S(=O)(=O)N2CCCC2)c1)c1ccc(F)cc1
→ .	.	5	-23	.	.	-1	2
CC(C)(C)C(=O)COC(=O)C1CC(=O)N(c2ccccc2)C1 (stereo unspecified)
→ 7	i	-18	-5	-9	8	2	6
CCCCC(=O)Nc1cc([N+](=O)[O-])ccc1Cl
→ -4	i	.	16	-2	-17	1	-2
COC(=O)[C@H](Cc1ccccc1)NC(=O)NCc1cccs1
→ -10	i	5	-29	4	14	4	9
COc1ccc(CNC(=O)CNC(=O)c2ccc(Br)o2)cc1OC
→ 29	i	-19	6	-2	-2	0	4
O=c1c2ccccc2nnn1CSc1nnc(COc2ccc(Cl)cc2)n1Cc1ccco1
→ -6	i	-6	70*	7	-9	1	3
Cc1cccc(-n2cnc3cc(C(=O)NCCN4CCOCC4)ccc32)c1
→ .	.	7	14	.	.	7	8
C=CCNC(=O)C1CC(=O)N(c2ccc(OCC(=O)Nc3ccc(CC)cc3)cc2)C1 (stereo unspecified)
→ -4	i	-10	1	9	1	0	1
CCc1noc(C)c1C(=O)N1CCN(S(=O)(=O)c2c(C)c(C)cc(C)c2C)CC1
→ .	i	-7	-2	.	-4	1	-2
CN(C)c1ccc(/C=N/NC(=O)c2ccn(C)n2)cc1
→ 0	i	.	-15	4	-16	0	-1
CCC(CC)C(=O)N1CC(=O)Nc2ccc(Br)cc2C1c1ccccc1 (stereo unspecified)
→ 14	i	-2	18	-1	2	-7	-5
COc1ccc(S(=O)(=O)NCC2CCCN(C(=O)c3ccccc3)C2)cc1 (stereo unspecified)
→ 16	i	.	4	-7	-3	2	0
CC(=Nc1ccccc1C(F)(F)F)c1ccncc1
→ 5	i	-7	-4	2	-5	0	6
Cc1ccccc1C1CC(=O)NC2=C1C(=O)CCC2 (stereo unspecified)
→ -8	i	-1	.	4	-7	0	3
O=C(CS(=O)(=O)c1ccccc1)c1cc2ccccc2oc1=O
→ 10	i	-15	.	6	-2	-1	1
O=C(CCCc1nc2ccccc2s1)Nc1ccc(N2CCOCC2)cc1
→ 3	i	.	9	2	-13	3	1
O=C1CCc2cc(S(=O)(=O)Nc3ccc(F)cc3)cc3c2N1CC3
→ .	i	-8	-6	.	8	-2	-3
COc1ccc(C(C)(C)C)cc1NC(=O)COC(=O)C(C)C
→ 1	i	.	3	-5	8	-2	2
O=S(=O)(c1ccc(Cl)cc1)N1CCCC(C(F)(F)F)C1 (stereo unspecified)
→ 2	i	-17	-7	0	-8	-1	-1
COC(=O)c1cc(NC(=O)Cc2cc(OC)c(OC)c(OC)c2)cc(C(=O)OC)c1
→ -5	i	-11	2	5	46	-2	-2

Eleven of these compounds in another layout.
SMILES	PABP FP inh	Rce1 inhib	Yeast UUG start	Env fusion inh	eIF4H inh	CSC inhib	MT1-MMP act inh	MT1-MMP act inh RFP
CC(=O)c1ccc(OCc2cc(C(=O)NCCc3ccc(Cl)cc3)no2)cc1	3	i	-2	-9	8	-9	7	0
Cc1cc(C(=O)CN2C(=O)C(=O)N(Cc3ccco3)C2=O)c(C)n1CCc1ccccc1	.	.	-16	11	.	.	-6	-12
CC1CCN(C(=O)CSc2nnc(CNC(=O)c3ccc(S(=O)(=O)N(C)C)cc3)o2)CC1	-8	i	5	11	0	-2	0	-8
COc1ccc(CCNC(=O)c2cc(S(=O)(=O)N3CCOCC3)ccc2N2CCCC2)cc1OC	.	i	-5	-6	.	2	1	0
N#Cc1c(N)nc2c(c1N)CC(CCl)O2 (stereo unspecified)	48	i	.	-32	26	-8	-5	6
Cc1csc(NC(=O)CSc2ncc(-c3ccccc3)[nH]2)n1	-4	i	-18	9	2	-4	6	1
CCOc1ccc(C(C)=O)cc1COc1cccnc1[N+](=O)[O-]	9	i	-16	33	8	41	-2	-5
COc1ccccc1NCc1ccc([N+](=O)[O-])s1	-4	i	-31	.	2	7	-2	-2
c1ccc(Cn2nnc3c(NCC4CC4)ncnc32)cc1	.	.	-5	10	.	.	0	0
COc1cc(OC)cc(C(=O)N[C@H](C(=O)OCC(=O)Nc2ccc(C)cc2C)C(C)C)c1	-1	i	-8	.	-5	-2	-1	3
O=S(=O)(Nc1cccc(S(=O)(=O)N2CCCC2)c1)c1ccc(F)cc1	.	.	5	-23	.	.	-1	2

(more compounds)
Order of results: PABP FP inh	Rce1 inhib	Yeast UUG start	Env fusion inh	eIF4H inh	CSC inhib	MT1-MMP act inh	MT1-MMP act inh RFP
C/C(CC(=O)NC(C)(C)C)=N\NC(=O)c1ccco1
→ 0	i	.	.	-2	1	1	5
CCN(CC)C(=O)COc1coc(CN2CCN(c3ccccc3)CC2)cc1=O
→ 8	i	-21	-6	1	-1	-1	1
Brc1ccccc1CN1CCN(Cc2c[nH]c3ccccc23)CC1
→ .	i	.	27	.	4	.	.
Cc1ccc(C(=O)Nc2ccc(NC(=O)c3ccc(C)o3)cc2)o1
→ -2	i	.	0	-9	10	1	0
CC12CCC(C)(O1)C1C(=O)N(c3nccs3)C(=O)C12 (stereo unspecified)
→ .	.	-8	27	.	.	6	-1
Cc1ccc(S(=O)(=O)N2CCN(C(=O)COC(=O)c3ccc(Cl)c(S(N)(=O)=O)c3)CC2)c(C)c1
→ .	.	-5	2	.	.	-5	-2
O=C(c1cccs1)N1C[C@H](O)[C@@H](n2cc(C3CC3)nn2)C[C@@H]1c1ccccc1
→ .	.	6	9	.	.	1	1
Cc1ccc(-c2nnc(-c3ccccc3)o2)cc1
→ -10	i	-24	-293	-1	-7	8	2
COc1ccc(NC(=O)CSc2nc3sc(C)cc3c(=O)n2C)cc1
→ -1	i	-33	9	-3	.	-2	-6
CCOc1ccc(N2CC(C(=O)NCc3cccc(C)c3)CC2=O)cc1 (stereo unspecified)
→ 0	i	-2	.	-4	-9	4	0
COc1ccc(CNc2nc(NCc3ccc(OC)c(OC)c3)n(C(=O)c3cccs3)n2)cc1OC
→ -10	i	-8	.	-7	11	-6	-5
CS(=O)(=O)c1ccc(C(=O)NCc2ccccc2F)cc1
→ -5	i	-14	-8	-2	-17	0	5
CCOc1ccc(N2C(=O)CC(N3CCC(NC(=O)Nc4ccccc4)CC3)C2=O)cc1 (stereo unspecified)
→ 0	i	-23	.	0	-15	-5	-5
COC(=O)CCCN=C1SCCN1Cc1ccccc1
→ -3	i	-11	-1	-2	.	-3	-1
CSC1=C(C#N)C(c2sccc2C)CC(=O)N1 (stereo unspecified)
→ -6	i	.	6	1	-22	-3	-5
Cc1ccc(OCC(=O)O/N=C(\N)Cc2ccc([N+](=O)[O-])cc2)cc1C
→ -15	i	11	7	3	7	-2	-1
COC(=O)c1cc(C(=O)Nc2cccc(C)n2)cc([N+](=O)[O-])c1
→ -7	i	1	.	-4	-16	2	2
O=C1CC(c2ccco2)CC(O)=C1C=NCC1CCNCC1 (stereo unspecified)
→ 52*	i	-3	.	94*	-4	-4	1
COc1cc(CNn2cn[nH]c2=S)cc(Br)c1OCc1ccccc1F
→ 2	i	.	18	-8	19	5	-8
COc1ccc(/C(C)=N/Nc2nc3ccccc3n3cnnc23)cc1OC
→ 3	i	.	14	5	-4	.	.
CC(/C=C/C=C/c1ccccc1)=N/NC(=O)CNc1ccccc1C
→ -13	i	-5	8	-8	.	3	3
Cn1cccc1Cc1nnc(SCC(=O)NCc2ccco2)n1CCc1ccccc1
→ 0	i	-16	-22	12	-5	7	2
CCCCCCSc1cc(-c2nc3ccc(Cl)cn3c2NC2CCCCC2)ccc1OC
→ .	i	5	0	.	24	-7	-5
O=C(O)c1ccccc1C(=O)NCCCn1ccnc1
→ 3	i	-6	4	4	-9	-5	-2
CC1=C(C(=O)OCc2ccccc2)C(c2ccc(C#N)cc2)NC(=O)N1CCCC(=O)O (stereo unspecified)
→ -7	i	-9	-78	0	4	7	3
COc1ccc(-c2oc3c(OC)c(OC)c(OC)c(O)c3c(=O)c2OC)cc1OC
→ 19	i	-1	.	15	-9	5	4
CCN(Cc1nc(-c2ccc(Cl)cc2)no1)CC1CCCO1 (stereo unspecified)
→ 10	i	-6	-11	-2	70	1	-2
N/C(Cc1nc(-c2ccc(Br)cc2)cs1)=N\O
→ 9	i	.	-18	-7	-7	-4	-1
COc1ccc(-n2nc(C(=O)NCC(=O)NCCCN3CC(C)CC(C)C3)c3ccccc3c2=O)cc1 (stereo unspecified)
→ 3	i	-8	-4	-15	-9	3	-2
CS(=O)(=O)N(CC(=O)Nc1ccc(Br)cc1)C1CCCCC1
→ 3	i	-28	-72	-2	-18	-5	-3
